Compound activity deposited in PubChem BioAssay by National Center for Advancing Translational Sciences (NCATS).
Cruzain Triton: cruzain (T. cruzi) inhibition with detergent | AID 1478 | Potency, µM, for the others: max response, negative = inhibition, hits mostly inhibitors | purified cruzain, Z-FR-AMC fluorescence, 0.01% Triton | 200,000 compounds, 0.43% hits; active means well fitted curve in the direction sought with a large enough effect; inconclusive means small, poorly fitted or top-dose-only effect, or another doubt; inactive means no such curve, though single readings can be large; an effect the other way counts as inactive or inconclusive;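 further: plate controls were neutral wells for no effect and buffer without enzyme for full effect; nearly all actives have a fitted effect of over 40% in size; top concentration of the series not given in the record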
Target sequence (P25779 123-467 limits assumed): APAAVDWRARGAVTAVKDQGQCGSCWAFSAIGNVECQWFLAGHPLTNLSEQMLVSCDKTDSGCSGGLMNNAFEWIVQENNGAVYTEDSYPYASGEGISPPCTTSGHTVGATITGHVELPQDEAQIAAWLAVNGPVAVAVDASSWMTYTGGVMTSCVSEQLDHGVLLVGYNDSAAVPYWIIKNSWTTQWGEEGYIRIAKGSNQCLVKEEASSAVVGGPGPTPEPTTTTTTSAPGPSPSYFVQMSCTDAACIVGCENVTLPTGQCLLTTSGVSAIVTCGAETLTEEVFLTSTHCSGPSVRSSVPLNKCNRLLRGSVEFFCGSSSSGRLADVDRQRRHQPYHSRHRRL
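Read-out: AMC fluorescence (360 nm excitation, 450 nm emission), four reads over 2 min, first-to-third difference used. Conditions: cruzain 1.5 nM, Z-FR-AMC 2 uM, pH 5.5 acetate, 5 mM DTT, 0.01% Triton X-100.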
2A StopGo: FMDV 2A StopGo reporter, luciferase signal; 410,000 compounds, 1.2% hits; human cells with a luciferase reporter of 2A StopGo recoding; control for the full effect not named in the record; AID 1159524; Potency, µM (titrated, usually from 57.9 µM), for inactives: top-dose signal change, negative = less light; active = well fitted falling curve with a large enough effect; inconclusive = small, poorly fitted or top-dose-only effect; inactive = no such curve, though single readings can be large or run the other way; tested in HEK293T cells; further: on the % scale 0 is the no-effect control and ±100 the full control effect; nearly all actives have a fitted effect of over 45% in size; luciferase light after 4 h
RE007 growth inh: less growth of the S. pombe RE007 Vpr strain; S. pombe RE007 Vpr strain, BacTiter-Glo ATP luminescence, 24 h; control for the full effect not named in the record; Potency, µM (doses to about 92.2 µM), without a hit: at the top dose activity change, negative = less growth; 360,000 compounds, 0.21% hits; active = well fitted falling curve with a large enough effect; inconclusive = small, poorly fitted or top-dose-only effect; inactive = no such curve, though single readings can be large or run the other way;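 further: on the % scale 0 is the no-effect control and ±100 the full control effect; nearly all actives have a fitted effect of over 50% in size; the assay follows cell death caused by Vpr and the record does not say whether a fall means rescue or toxicity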
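Fission yeast RE007 carrying one integrated HIV-1 vpr copy, seeded at OD 0.01 in PMG+AL medium with 23 nL pinned compound. Grown 24 h at 30 degrees; viability read by BacTiter-Glo luminescence after 5 min.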
NS1 function inh: inhibitors of influenza NS1 protein function | S. cerevisiae slowed by influenza A NS1, growth recovery by OD600 | Potency, µM (series often up to 46.1 µM), without a hit: at the top dose activity, positive = more growth | 270,000 compounds, 0.4% hits | AID 2326; further: actives are rising curves; nearly all actives have a fitted effect of over 50% in size
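OD600 was taken as the measure of yeast growth restored by compound in an NS1-expressing S. cerevisiae strain. Cells had been washed out of glucose medium and diluted 1:100 into galactose -URA medium, pH 6.0.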
Marburg entry inh: blocks Marburg virus binding to or entry into cells | Marburg virus pseudotyped entry inhibition, cell reporter; control for the full effect not named in the record; about a third of the inactives were read at about 46 µM | Potency, µM (top dose mostly 37.8 µM), inactives show at the top dose activity change, negative = inhibition, usual class: inhibitors | 300,000 compounds, 1.8% hits | AID 540276; active = well fitted inhibition curve with a large enough effect; inconclusive = small, poorly fitted or top-dose-only effect, or effect the other way; inactive = flat fitted curve, though single readings scatter; tested in HEK293 cells; about a fifth of its hits are not listed in these tables; further: on the % scale 0 is the no-effect control and ±100 the full control effect; luciferase read-out
Cruzain noTriton: cruzain (T. cruzi) inhibition without detergent; AID 1476; P25779; 200,000 compounds, 2.3% hits; purified cruzain, Z-FR-AMC fluorescence, no detergent; Potency, µM, for the others: max response, negative = inhibition, hits mostly inhibitors; active means well fitted curve in the direction sought with a large enough effect; inconclusive means small, poorly fitted or top-dose-only effect, or another doubt; inactive means no such curve, though single readings can be large; an effect the other way counts as inactive or inconclusive;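 further: plate controls were enzyme without inhibitor for no effect and buffer without enzyme for full effect; nearly all actives have a fitted effect of over 40% in size; top concentration of the series not given in the record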
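Detergent-free condition (0.00005% Triton X-100) in acetate buffer pH 5.5 with DTT. 1.5 nM enzyme and compound were pre-mixed 15 min, then 2 uM Z-FR-AMC substrate added; reaction progress from fluorescence change between first and third reads (60 s).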
LASV entry inh: Lassa virus entry inhibition | Lassa virus pseudotype entry inhibition, cell reporter; control for the full effect not named in the record | Potency, µM (titrated, usually from 37.9 µM), for the others: at the top dose activity change, negative = inhibition, usual class: inhibitors | 300,000 compounds, 1.2% hits; active means well fitted inhibition curve with a large enough effect; inconclusive means small, poorly fitted or top-dose-only effect, or effect the other way; inactive means flat fitted curve, though single readings scatter; tested in HEK293 cells; further: on the % scale 0 is the no-effect control and ±100 the full control effect; nearly all actives have a fitted effect of over 50% in size; luciferase read-out
SARS PLpro yeast: SARS-CoV PLP inhibition in yeast; S. cerevisiae expressing SARS-CoV PLpro, growth rescue; control for the full effect not named in the record; Potency, µM (top dose mostly 32.9 µM), inactives show at the top dose activity, positive = growth rescue; 330,000 compounds, 0.19% hits; AID 485353; further: 0% is about no effect; nearly all actives have a fitted effect of over 55% in size; growth read by luminescence after 48 h
An asterisk follows results filed as active; ? = inconclusive; / = no result given; & = joins results of further samples; [ ] = remark or other dose. Unless noted, the call rests on the fitted dose curve; in most records, active means well fitted rising curve with a large enough effect; inconclusive means small, poorly fitted or top-dose-only effect; inactive means no such curve, though single readings can be large or run the other way. Potency means the concentration at half of the fitted maximal effect.

SMILES	Cruzain Triton	2A StopGo	RE007 growth inh	NS1 function inh	Marburg entry inh	Cruzain noTriton	LASV entry inh	SARS PLpro yeast
Cc1ccnc2nc(C(=O)OCC(=O)Nc3ccc([N+](=O)[O-])cc3Br)nn12	/	7%	-19%	/	11%	/	-2%	4%
O=C(c1ccc(OC2CCN(Cc3ccccn3)CC2)cc1)N1CCCC(O)C1 (stereo unspecified)	/	25%	-6%	-4%	-17%[46.1 µM]	/	0%	1%
O=S(=O)(c1cccc(S(=O)(=O)N2CCC(Cc3ccccc3)CC2)c1)N1CCOCC1	-2.3%	-4%	0%	11%	?	21%	-9%	-1%
Cc1cccc(OCCCC(=O)Nc2nccs2)c1	0.6%	?	18%	-5%	-1%	-21%	-10%	11%
O=C(CNC(=O)c1cnccc1C(F)(F)F)c1cccc(Cl)c1	/	-3%	-2%	0%	8%[46.1 µM]	/	7%	-1%
CCOc1ccc(C(=O)COC(=O)c2cc(=O)[nH]c3ccccc23)cc1	/	2%	-24%	/	36%	/	13%	0%
COc1ccc(NC(=O)CN2C(=O)CCn3nc(-c4cccn4C)cc32)cc1Cl	-5.5%	-13%	/	/	/	21%	15%[46.1 µM]	/
CN1CCN(c2ccc(S(=O)(=O)N3CCCCC3)cc2NC(=O)COc2ccc([N+](=O)[O-])cc2)CC1	/	4%	4%	/	7%	/	9%	2%
Cc1ccc(NC(=O)CCCc2nc(-c3ccco3)no2)cc1Cl	-8.4%	-16%	/	/	-4%[46.1 µM]	-5%	5%[46.1 µM]	/
CCN(CCCNC(=O)c1cc2c(=O)n(C)c3ccccc3c2s1)Cc1ccccc1	-2.5%	-8%	/	/	?	12%	2%[46.1 µM]	/
CCc1noc(C)c1C(=O)N1CCCSC1=Nc1ccccc1	/	0%	-6%	/	-11%	/	30%[46.1 µM]	/
COc1ccc(C(=O)Nc2ccccc2C(=O)N2CCOCC2)cc1	/	26%	-16%	0%	-2%[46.1 µM]	/	-6%[46.1 µM]	-5%
CCOC(=O)c1csc(NC(=O)c2ccc(OCC)cc2)n1	/	?	4%	-6%	?	/	?	-4%
CCNC(=O)c1ccc2nc(CCc3ccccc3)oc2c1	0.6%	0%	/	/	/	0%	36%[46.1 µM]	/
CCCCCCCCNC(C)C(O)c1ccc(SC(C)C)cc1 (stereo unspecified)	-0.8%&1.3%	?	3%	-31%	-9%	8%&1%	?	-27%
COCCN(C(=O)COc1ccccc1)c1nnc(-c2cccnc2)s1	4.3%	-7%	7%	-3%	?	-5%	0%	0%
COc1cccc(CNC(=O)C2CCN(C(=O)N3CC(C)Oc4ccccc43)CC2)c1 (stereo unspecified)	/	-17%	1%	1%	/	/	/	0%
O=[N+]([O-])c1ccc(N/N=C/c2c[nH]c3ccccc23)cc1	-4.1%	13%	-10%	-54%	-2%	25µM*	-10%	-15%
COc1ccccc1/C=C/CN1CCC(n2nccc2NC(=O)CCc2ccccc2)CC1	/	?	-7%	-2%	/	/	/	-2%
Cc1sc(N2C(=O)C3C(C2=O)[C@H]2C=C[C@@H]3C2)c(C#N)c1C (stereo partly specified)	/	-10%	-7%	-2%	/	/	/	1%
O=S(=O)(CCN1C=CC(C(F)(F)F)=NCC1)c1ccc(F)cc1	/	-19%	-7%	4%	?	/	-1%	0%
N#Cc1cnn(-c2ccccc2)c1N	1.1%	/	-3%	1%	11%	-7%	?	-3%
O=C1c2oc3ccccc3c(=O)c2C(c2cccc(O)c2)N1c1nncs1 (stereo unspecified)	-3.6%	0%	/	/	27%[46.1 µM]	11%	2%[46.1 µM]	/
O=C(/C=C/c1ccccc1)c1ccc2ccccc2c1	/	-9%	1%	/	?	/	?	/
CCOCCCNC(=S)Nc1ccc2nc(N3CCCC3)cc(C)c2c1	-22%	-11%	-7%	6%	?	-8%	4%	17%
CCOC(=O)C1CCN(C2CC(=O)N(c3cccc(Cl)c3)C2=O)CC1 (stereo unspecified)	3.6%	/	10µM*	-46%	11%	11%	0%	-10%
COc1cc(CCC(=O)OCc2ccccc2C#N)cc(OC)c1OC	/	-16%	7%	-3%	-21%[46.1 µM]	/	2%	0%
CCOC(=O)N1CCN(C(=O)Nc2ccccc2)CC1	/	-8%	-2%	1%	30%[46.1 µM]	/	-16%	0%
O=C(/C=C/c1ccccc1[N+](=O)[O-])NCC1CCCO1 (stereo unspecified)	-4.7%	11%	7%	-8%	?	-5%	-2%	-9%
COCCNC(=S)N/N=C/c1ccccc1C(=O)O	-6.8%	9%	10%	8%	16%	-17%	10%	-2%
O=C1CN(C(=O)c2cc3ccccc3o2)c2ccccc2N1	0.9%	72%[activator]	5%	-1%	15%	-10%	?	17%
O=C1CCC(C(=O)NCc2cccnc2)N1 (stereo unspecified)	0.1%	-12%	8%	4%	-6%	-8%	6%	-9%
COc1cc(CC(=O)OCC(=O)Nc2ccc3c(c2)OCCO3)cc(OC)c1OC	0.8%	-18%	7%	6%	-2%	19%	-1%	20%
COCCCNCCCCOc1ccc(C)cc1[N+](=O)[O-]	-3.8%	-2%	1%	2%	?	14%	15%	-5%
C=CCn1c(-c2ccc(OC)c(OC)c2)cs/c1=N\c1ccccn1	-9.8%	?	-7%	-54%	-14%	9%	1%	?
COc1cccc(CN2CCNC(=O)C2CC(=O)N(C)C2CCCCC2)c1 (stereo unspecified)	/	-10%	-12%	0%	-20%[46.1 µM]	/	6%[46.1 µM]	?
Cc1cc(Cl)c(S(=O)(=O)N2CCN(c3ccc(F)cc3)CC2)cc1OCC(=O)NC1CCCCC1	-2.7%	?	17%	17%	10µM*	?	?	-7%
COc1ccc(S(=O)(=O)NCC(c2cccnc2)N2CCN(C)CC2)cc1OC (stereo unspecified)	/	9%	-5%	8%	1%	/	17%	?
Oc1ccccc1-c1nc(/C=C/c2ccc(F)cc2)nn1-c1ccccc1	-10%	0%	/	/	17%[46.1 µM]	-11%	15%[46.1 µM]	/
COc1ccc(N2C(=O)CC(NC34CC5CC(CC(C5)C3)C4)C2=O)c(OC)c1 (stereo unspecified)	-0.5%	17%	-12%	-6%	10%	9%	-16%	-27%
COc1ccc(NC(=O)COC(=O)/C=C/c2ccccc2[N+](=O)[O-])cc1	-12%	-15%	0%	1%	14%	-14%	-1%	-10%
COc1ccc(NC(=O)C2CCN(S(=O)(=O)c3cccc4nonc34)CC2)cc1OC	/	-15%	9%	3%	-6%[46.1 µM]	/	6%[46.1 µM]	1%
O/N=C(\C[n+]1ccccc1)c1ccc(Br)cc1	/	-8%	3%	5%	2%[46.1 µM]	/	24%[46.1 µM]	-1%
Cc1ccc(NC(=O)c2cccc(N3CCCS3(=O)=O)c2)cc1	-1.3%	13%	/	/	/	-6%	11%[46.1 µM]	/
OCCOCCn1c(-c2ccccc2)nc(=S)c2c1CCCC2	-5.5%	-1%	-7%	-5%	/	-18%	/	1%
N#Cc1ccccc1OCC(=O)Nc1c(C(=O)C2CC2)oc2ccccc12	1.9%	-11%	-1%	-4%	-1%	-21%	2%	3%
CCC(C)C(NC(=O)OC(C)(C)C)C(=O)NC(C(=O)NC(C)C(N)=O)C(C)C (stereo unspecified)	/	-8%	23%	5%	6%	/	2%	0%
COc1ccc(C2(CNC(=O)c3ccc(OC)c([N+](=O)[O-])c3)CCCCC2)cc1OC	-6.0%	?	/	-10%	-34%	?	-10%	-8%
CC(C)NC(=O)CN1CCN(c2ncccn2)CC1	1.4%	/	-11%	-3%	-3%	2%	3%	13%
CCCCn1c(SCC(=O)Nc2cc(C)on2)nc2ccccc2c1=O	5.7%	37%[activator]	23%	-2%	14%	-29%	-11%	-5%

Next section:
SMILES	Cruzain Triton	2A StopGo	RE007 growth inh	NS1 function inh	Marburg entry inh	Cruzain noTriton	LASV entry inh	SARS PLpro yeast
O=C(c1cccc(Cl)c1)n1nc(-c2cccnc2)nc1NCc1ccccc1	-2.7%	2%	/	/	5%[46.1 µM]	-14%	?	/
Cc1ccc(S(=O)(=O)NCCNc2ccccc2[N+](=O)[O-])cc1	/	58%[activator]	-6%	-2%	-9%[46.1 µM]	/	16%	-2%
O=C(O)c1[nH]c2ccccc2c1CC(=O)N1CCOCC1	3.1%	5%	1%	5%	6%	4%	-3%	4%
O=C(COC(=O)c1ccc(OC(F)F)cc1)NCCCN1CCCC1=O	/	-13%	14%	2%	/	/	/	1%
Cc1ccn2c(C(=O)N/N=C/c3ccc(CNC(=O)C(=O)Nc4ccc(C)c(C)c4)o3)c(C)nc2c1	-13%	/	/	7%	/	10%	/	-1%
O=[P+](Cc1ccccc1)Cc1ccccc1	5.3%	-20%	-3%	10%	15%	2%	2%	?
Brc1ccccc1-c1cnco1	/	-3%	-14%	-1%	9%[46.1 µM]	/	12%[46.1 µM]	0%
O=C(Cc1ccc(Br)cc1)N1CCN(c2ccc(F)cc2)CC1	-5.4%	0%	-19%	-108%	-21%	3%	-15%	0%
O=C(COc1ccc([N+](=O)[O-])cc1)N1CCN(c2nnc(-c3ccccc3)c3ccccc23)CC1	/	?	-3%	-39%	/	/	/	-1%
CC(C)c1onc(C(=O)N2CCCCC2C)c1[N+](=O)[O-] (stereo unspecified)	-0.7%	-24%	26%	0%	0%	6%	2%	3%
CC(C)Oc1ccc(C2CC(=O)N(c3ccc(N(C)C)cc3)C2=O)cc1 (stereo unspecified)	-0.3%	-20%	-1%	3%	-3%	7%	4%	14%
O=C1/C(=C/c2ccncc2)N2CCC1CC2	/	10%	3%	/	?	/	?	-6%
C=CCOc1ccc(/C=C/C(=O)OCC(=O)NCc2ccco2)cc1	/	-13%	2%	/	6%[46.1 µM]	/	-25%	-2%
